# IMPase inh = qHTS Assay for Identifying the Cell-Membrane Permeable IMPase Inhibitors. inhibition (IP1 accumulation), % at 46.1 µM. CHO-M1 cells, IP1 accumulation, HTRF TR-FRET ratio. AID 901, 2007. 120,000 tested, under 10 active; active means well fitted curve in the direction sought with a large enough effect in the signal ratio, not every such curve was filed as active; inconclusive means small, poorly fitted or top-dose-only effect, or a change in a side signal; inactive means no such curve, though single readings can be large or run the other way; the % refers to the signal ratio;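 further: cells stimulated with carbachol in lithium chloride buffer; plate controls were DMSO basal wells for no effect and reference inhibitor wells for full effect; higher means more IMPase inhibition seen as more IP1 and lower FRET ratio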
# Target sequence (P97697 whole entry, looked up): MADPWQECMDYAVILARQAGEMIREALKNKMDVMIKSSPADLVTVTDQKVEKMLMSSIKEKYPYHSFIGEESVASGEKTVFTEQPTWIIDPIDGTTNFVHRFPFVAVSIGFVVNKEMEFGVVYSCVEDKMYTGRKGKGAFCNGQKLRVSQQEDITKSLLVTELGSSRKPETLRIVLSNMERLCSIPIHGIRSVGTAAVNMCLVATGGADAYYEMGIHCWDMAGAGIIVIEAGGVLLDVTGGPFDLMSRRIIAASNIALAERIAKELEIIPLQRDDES
#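 CHO-M1, 2000 cells/well, cultured 16–30 h; cpd up to 46 uM; carbachol (50 uM solution, stimulation buffer w/ 50 mM LiCl, pH 7.4), 30 min 37C; IP-One TR-FRET, 10 min RT; Ex 320/Em 665, 620; Hill-fit AC50.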
# PNC inhibitor = High Content Assay for Compounds that inhibit the Assembly of the Perinucleolar Compartment; PC3M PTB-GFP, PNC prevalence imaging, 16 h; hits give low values; activity change (PNC), negative = inhibition, % at 10 µM; actives 3.1% (n = 140,000); AID 2417, 2010;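 active means readout at or below -70, meaning at least 70% loss of cells showing the perinucleolar compartment, a nuclear body marking cancer cells; inconclusive means readout between -30 and a set limit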;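 further: plate controls were DMSO wells for no effect and camptothecin positive control wells for full effect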
#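 PC3M cells stably expressing PTB-GFP, 750–1000 cells/well, treated 16 h at 37 °C with compound (23 nl of library stock), in duplicate. After paraformaldehyde fixation and Hoechst stain, imaged at 20x; PNC prevalence scored by image analysis.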
# ALOX12 inhib = qHTS Assay for Inhibitors of 12-hLO (12-human lipoxygenase) | Polyunsaturated fatty acid lipoxygenase ALOX12 (Homo sapiens), P18054 | purified 12-hLO, xylenol orange hydroperoxide absorbance | Potency, µM (series often up to 57.1 µM), without a hit: at the top dose activity change, negative = inhibition, most hits filed as inhibitors | actives 0.12% (n = 150,000) | AID 1452, 2008; active means well fitted inhibition curve with a large enough effect; inconclusive means small, poorly fitted or top-dose-only effect; further: potency means the concentration at half of the fitted maximal effect; nearly all actives have a fitted effect of over 55% in size; many of its hits are not listed in these tables
# Target sequence (P18054 whole entry, looked up): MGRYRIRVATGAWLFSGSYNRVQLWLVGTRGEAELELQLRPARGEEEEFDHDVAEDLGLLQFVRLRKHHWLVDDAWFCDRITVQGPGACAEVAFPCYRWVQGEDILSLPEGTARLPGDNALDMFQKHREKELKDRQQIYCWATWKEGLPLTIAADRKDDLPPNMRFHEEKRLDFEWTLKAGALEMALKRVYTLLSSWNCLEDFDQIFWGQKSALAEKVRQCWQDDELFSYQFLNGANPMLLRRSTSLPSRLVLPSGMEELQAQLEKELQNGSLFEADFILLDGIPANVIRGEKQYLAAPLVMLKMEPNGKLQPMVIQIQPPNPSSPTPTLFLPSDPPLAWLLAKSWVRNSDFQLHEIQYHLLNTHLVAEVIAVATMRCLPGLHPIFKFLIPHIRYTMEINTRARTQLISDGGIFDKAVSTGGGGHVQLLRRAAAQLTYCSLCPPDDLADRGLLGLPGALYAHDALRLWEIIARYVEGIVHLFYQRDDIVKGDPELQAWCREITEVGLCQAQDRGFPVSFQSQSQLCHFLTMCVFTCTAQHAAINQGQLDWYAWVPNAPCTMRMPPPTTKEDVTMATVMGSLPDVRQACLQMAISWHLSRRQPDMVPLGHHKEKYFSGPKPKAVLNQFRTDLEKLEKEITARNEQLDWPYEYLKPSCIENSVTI
#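 Xylenol orange chromogenic assay: hydroperoxide from 12hLO oxidises Fe(II), giving red-shifted Fe(III)-XO absorbance. Conditions: 150 nM enzyme, 40 uM arachidonic acid, 25 mM Hepes pH 7.0, 0.01% Triton X-100, 30 min, room temperature.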
# * = called active by the depositor; ? = inconclusive; · = no result given; [ ] = dose if it differs, or a comment. Unless noted, on the % scale 0 is the no-effect control and ±100 the full control effect. This is a subset. The share of hits here may be higher or lower than overall.
no.	PNC inhibitor	ALOX12 inhib	SMILES	IMPase inh
1	12.6	3.0%	CCN(CC)S(=O)(=O)c1cc(C(=O)Oc2cccc(-c3cnc4ccccc4n3)c2)ccc1Br	0.4
2	?	0.5%	O=S(=O)(Nc1ccc(-c2nc3cccnc3s2)cc1)c1cccs1	-24.1
3	37.5	-2.4%	Cc1nc2nc[nH]n2c(=O)c1NS(C)(=O)=O	10.4
4	19.5	1.4%	COc1cc(OC)cc(C(=O)N2CCC(n3c(C)nc4cc(F)ccc43)CC2)c1	5.4
5	50.8	-1.9%	O=C(O)CN1C(=O)SC(Nc2ccc(Cl)cc2)C1=O (stereo not given)	-7.4
6	2.2	-8.5%	COC(=O)c1ccc2c(c1)N(Cc1nc(-c3cccc(C)c3)oc1C)C(=O)C1CCCN21 (stereo not given)	-6.7
7	53.1	4.4%	COc1ccc2[nH]c(C)c(C(=O)CN3CCOCC3)c2c1	-8.7
8	-17.4	-23.5%	O=C(CSc1ccc(F)cc1)N1CCC(c2nc3ccccc3s2)CC1	4.2
9	-4.9	-1.4%	CCOC(=O)c1c(-c2ccccc2)nnn1-c1nc(OC)nc(N2CCOCC2)n1	?
10	?	2.3%	COc1cc2c(cc1OC)CN(C(=O)COc1ccc(C)c(C)c1)CC2	4.0
11	?	-8.7%	COc1cc(S(=O)(=O)N2CCOCC2)ccc1NC(=O)COC(=O)C12CC3CC(CC(C3)C1)C2	6.0
12	-20.9	-6.6%	CC1=C(C(=O)Nc2ccccn2)C(c2cccnc2)n2nnnc2N1 (stereo not given)	-18.2
13	29.4	-5.7%	CC(C1CC1)N(C(=O)c1ccccc1O)c1ccccc1 (stereo not given)	-6.4
14	·	0.5%[11.4 µM]	CC(C)(CO)N1CCN(C(=S)Nc2ccccc2)CC1	·
15	56.9	-1.5%	CCOc1ccc(/C=C2\C(=O)c3ccccc3OC2c2ccccc2)cc1 (stereo not given)	6.7
16	53.3	9.2%	CCOc1cc(/C=C2/NC(=O)N(CC(=O)Nc3cccc(C)c3)C2=O)ccc1OC	7.7
17	-25.3	2.2%	Cc1ccc(CCN2CC(C(=O)O)CC2=O)cc1 (stereo not given)	9.7
18	17.2	-1.2%	CC(C)C(C)(C#N)NC(=O)CSc1nnc(C(F)(F)F)n1C (stereo not given)	5.0
19	70.9	?	COc1ccc(C2NC(=S)NC3=C2CCc2cc(OC)ccc23)cc1 (stereo not given)	3.3
20	44.3	-24.9%	Cc1ccc(SCCNC(=S)Nc2cc(C)cc(C)c2)cc1	6.0
21	44.3	-1.0%	C=CCNc1nc(-c2ccccc2)c(C(=O)OCC)cc1C#N	7.8
22	-9.8	-21.6%	Cc1cccc(N2C(=O)CC(N(O)c3ccccc3)C2=O)c1 (stereo not given)	-0.9
23	-11.0	-1.9%	CCOC(=O)C1CCN(Cc2cn[nH]c2-c2ccc(C)cc2)CC1	9.2
24	-2.3	0.7%	CCCCNC(=O)COC(=O)CCC(=O)c1ccc(F)cc1	10.3
25	-16.0	-2.9%	Cc1sc2ncn(CC(=O)NCCCC(=O)N3CCN(c4ccccc4)CC3)c(=O)c2c1C	14.0
26	-25.6	9.6%	COc1ccc(OC(=O)c2cccnc2)cc1	-5.0
27	?	-24.1%	O=C(COc1ccccc1)NC(NC(=S)Nc1ccccc1O)C(Cl)(Cl)Cl (stereo not given)	6.6
28	-23.4	-13.8%	CCCCN(CC)S(=O)(=O)c1ccc(C(=O)Nc2nnc(-c3cccs3)o2)cc1	3.2
29	-3.4	0.3%	CC1CN(CCC(=O)Nc2ccc3c(c2)OCO3)CC(C)O1 (stereo not given)	-4.2
30	27.7	-4.7%	CN(CCC(=O)Nc1ccc2c(c1)OCO2)Cc1ccccc1	-2.7
31	5.4	-6.7%	CN(C)CCCn1c(-c2ccccc2)nc(=S)c2c1CCCC2	0.3
32	7.1	4.9%	CN(C)CCSc1nc(N)c2c3c(sc2n1)CN(C)CC3	-6.2
33	?	1.0%	C=CCC1CCCCC12NC(=O)NC2=O (stereo not given)	-7.1
34	?	1.0%	CCC(Sc1nc2c(c(=O)[nH]1)CCC2)C(=O)Nc1cccc(OC)c1 (stereo not given)	-2.0
35	?	-22.1%	CC(C)C(=O)NC(=S)Nc1ccccc1C(F)(F)F	3.0
36	-29.5	-2.9%	CCOC(=O)c1cc(C#N)c(N2CCCC2)nc1-c1ccccc1	-1.7
37	-13.0	-3.1%	O=C(CCn1c(=S)[nH]c2ccccc2c1=O)NCCCN1CCCC1=O	-5.3
38	-12.5	0.9%	O=C1OC(c2ccc(Br)cc2)=N/C1=C\N1CCCCC1	17.4
39	1.0	-7.8%	Cc1ccc(C)c(N2CCN(C(=O)CCn3c(=S)[nH]c4cc5c(cc4c3=O)OCO5)CC2)c1	1.1
40	?	-1.5%	Cc1ccc2oc(=O)cc(CN3CCOCC3)c2c1	3.0
41	-26.5	1.0%	Fc1ccc2c(Cl)c(-c3nnc(-c4cccs4)o3)sc2c1	-7.3
42	?	0.7%	Cc1ccccc1OCC(=O)Nc1sc2c(c1C#N)CCC2	6.1
43	58.7	2.4%	CCC(=O)Oc1ccc(C(=O)Nc2ccc3c(c2)C(=O)N(C2CCCCC2)C3=O)cc1	3.5
44	27.9	-19.2%	COc1ccc(C2c3c(-c4cc(Cl)c(C)cc4O)n[nH]c3C(=O)N2Cc2cccnc2)cc1OC (stereo not given)	9.0
45	-10.3	-14.4%	c1ccc(N(c2ccccc2)c2nc(-n3ccnc3)nc(-n3ccnc3)n2)cc1	4.8
46	28.1	?	Oc1ccccc1-c1cc(-c2ccc3c(c2)OCCO3)n[nH]1	5.5
47	-11.4	-5.6%	CN1C(=O)NC(c2ccccc2)C2=C1CN(c1ccc3ccccc3c1)C2=O (stereo not given)	0.0
48	?	-1.6%	CN1C(=O)N(C)C2C1N(C)S(=O)(=O)N2C (stereo not given)	7.0

# Looked up by structure from the entries so far (3):
no.	PNC inhibitor	ALOX12 inhib	SMILES	IMPase inh
37	-13.0	-3.1%	O=C(CCn1c(=S)[nH]c2ccccc2c1=O)NCCCN1CCCC1=O	-5.3
46	28.1	?	Oc1ccccc1-c1cc(-c2ccc3c(c2)OCCO3)n[nH]1	5.5
40	?	-1.5%	Cc1ccc2oc(=O)cc(CN3CCOCC3)c2c1	3.0

# Results in IMPase inh (four entries from above):
cpd | SMILES | IMPase inh
39 | Cc1ccc(C)c(N2CCN(C(=O)CCn3c(=S)[nH]c4cc5c(cc4c3=O)OCO5)CC2)c1 | 1.1
40 | Cc1ccc2oc(=O)cc(CN3CCOCC3)c2c1 | 3.0
41 | Fc1ccc2c(Cl)c(-c3nnc(-c4cccs4)o3)sc2c1 | -7.3
42 | Cc1ccccc1OCC(=O)Nc1sc2c(c1C#N)CCC2 | 6.1

# Next section:
no.	PNC inhibitor	ALOX12 inhib	SMILES	IMPase inh
49	?	?	COc1ccc(/C=N/NC(N)=S)cc1OC(=O)c1cccc2ccccc12	-1.6
50	·	-4.2%	Cc1ccc2c(c1)C(=O)[C@@]1(O)CCN(c3ccccc3)C1=N2	1.9
51	96.8	6.4%	O=C(CNC(=O)Cn1ccc2ccccc2c1=O)NCCCN1CCN(c2cccc(Cl)c2)CC1	7.3
52	?	-5.8%	NS(=O)(=O)c1ccc(NC(=O)CSc2nnc(COc3ccccc3Cl)n2C2CC2)cc1	-3.2
53	-29.2	-5.6%	CN1C(=O)NC(c2ccccc2)C2=C1CN(c1cccc(C(F)(F)F)c1)C2=O (stereo not given)	0.8
54	22.6	3.6%	NC1=NC2(CCCCCC2)n2c(nc3ccccc32)N1	3.2
55	0.4	-2.9%	COC(=O)CCN(C(=O)C1C2CC3CC(C2)CC1C3)c1ccccn1 (stereo not given)	5.5
56	34.0	-4.2%	COc1ccc(S(=O)(=O)N2CCN(C(=O)[C@@H]3CCC(=O)N3C3OC(=O)c4ccccc43)CC2)cc1 (stereo not given in full)	-9.0
57	?	-9.8%	CCN(CC)C(=S)NC(=O)c1ccc(Cl)cc1Cl	1.7
58	9.0	-8.1%	COCCn1nnnc1C(c1ccc(C)cc1)N1CCN(Cc2ccc3c(c2)OCO3)CC1 (stereo not given)	17.6
59	2.4	-11.4%	COc1cc(S(=O)(=O)N2CCOCC2)ccc1NC(=O)c1cc2c(s1)CCC2	?
60	22.0	5.4%	Cn1c(SCC(=O)NC2CC2)nnc1C(F)(F)F	0.9[1.84 µM]
61	-5.5	-4.2%	COc1cccc(C2C(C(=O)Nc3cccnc3)=C(C)Nc3nnnn32)c1OC (stereo not given)	4.2
62	-0.3	-0.7%	c1csc(-c2noc(COc3ccc4c(c3)CCCC4)n2)c1	4.8
63	-6.0	-3.3%	COc1cc(S(=O)(=O)N2CCCCC2)ccc1NC(=O)Cc1ccccc1	1.3
64	18.0	-5.0%	CCCCCc1ccc(-c2ccc(=O)[nH]n2)cc1	-4.3
65	?	4.7%	COc1ccccc1CNc1nc2nc3c(c(=O)n2[nH]1)CCC3	4.1
66	-4.0	3.4%	Cc1nc2ccc(NC(=O)N3CCSCC3)cc2s1	2.4
67	-26.7	-2.1%	CCC(C)C(NC(=O)OC(C)(C)C)C(=O)NC(CC(C)C)C(N)=O (stereo not given)	-1.8
68	·	-2.9%[11.4 µM]	CCOC(=O)c1c(C)c(C)n2c1NC(=O)C2	·
69	-14.8	-4.5%	O=C(Nc1ccccc1)C1=C(O)CC(c2ccoc2)CC1=Nc1ccccc1 (stereo not given)	5.2
70	?	7.8%	COc1cc(S(=O)(=O)N2CCCCC2)ccc1NC(C)=O	5.2
71	?	0.2%	CCC1CCCCN1CCCn1c(=S)[nH]c2ccccc2c1=O (stereo not given)	-16.5
72	0.0	0.7%	COc1ccc(NC(=O)Nc2c(C)n(C)n(-c3ccccc3)c2=O)cc1	1.7

# An excerpt of these results, with the structure last.
no. | PNC inhibitor | ALOX12 inhib | IMPase inh | canonical_smiles
39 | 1.0 | -7.8% | 1.1 | Cc1ccc(C)c(N2CCN(C(=O)CCn3c(=S)[nH]c4cc5c(cc4c3=O)OCO5)CC2)c1
40 | ? | -1.5% | 3.0 | Cc1ccc2oc(=O)cc(CN3CCOCC3)c2c1
41 | -26.5 | 1.0% | -7.3 | Fc1ccc2c(Cl)c(-c3nnc(-c4cccs4)o3)sc2c1
42 | ? | 0.7% | 6.1 | Cc1ccccc1OCC(=O)Nc1sc2c(c1C#N)CCC2

# The results go on.
no.	PNC inhibitor	ALOX12 inhib	SMILES	IMPase inh
73	-9.2	-1.4%	COc1ccc(NC(=O)CN2CCN(CC(=O)Nc3cc(OC)cc(OC)c3)CC2)cc1	5.4
74	-2.2	-0.3%	CS(=O)(=O)N(Cc1ccccc1)c1ccc(C(=O)Nc2ccc3c(c2)OCO3)cc1	9.6
75	24.2	3.5%	CC(NC(=O)OC(C)(C)C)C(=O)N1CCCC1C(=O)NC(Cc1ccccc1)C(N)=O (stereo not given)	-4.8
76	-24.3	1.6%	CC(=O)Cc1nsc(NC(=O)c2cccs2)n1	0.6
77	46.1	-11.6%	O=C(CCc1ccccc1)NC(NC(=S)Nc1ccc(Cl)cc1)C(Cl)(Cl)Cl (stereo not given)	3.1
78	35.0	-4.3%	O=C(NC1CCCC1)C1CC(=O)N(CCc2ccccc2)C1 (stereo not given)	-3.3
79	-16.2	-1.2%	CCNC(=S)N1CCC(c2nc3ccccc3s2)CC1	-1.4
80	40.6	4.3%	O=C(NC1(C(F)(F)F)C(=O)Nc2c1c(=O)[nH]c(=O)n2-c1ccc(F)cc1)c1cccnc1 (stereo not given)	-0.3
81	?	-4.3%	C=CCn1c(Cc2csc(N)n2)nnc1SCC(=O)Nc1ccccc1C(F)(F)F	2.1
82	8.5	0.2%	CCOC(=O)c1cc(C#N)c(Oc2ccccc2)nc1-c1ccccc1	-12.6[1.84 µM]
83	5.5	0.0%	CCOC(=O)CCCNC(=O)COC(=O)CCC(=O)c1ccc(F)cc1	3.1
84	-14.2	-13.4%	CCOC(=O)c1c(NC(=O)C(C)NCc2ccco2)sc2c1CCC(C)C2 (stereo not given)	1.9
85	-10.3	-6.7%	COc1ccc(-c2ccc(=O)[nH]n2)cc1	2.7

# Assay outcomes as filed in PubChem BioAssay.
